Bioassay records: PubChem, National Center for Advancing Translational Sciences (NCATS)
VACV mCherry inh: inhibitors of vaccinia virus infection (mCherry reporter signal) | Vaccinia virus mCherry reporter infection, fluorescence; about a quarter of the inactives have no number | Potency, µM (series often up to 36.5 µM), for inactives: top-dose activity change, negative = inhibition, most hits filed as inhibitors | AID 720579 | 0.63% of 310,000 active; active = well fitted inhibition curve with a large enough effect; inconclusive = small, poorly fitted or top-dose-only effect; inactive = no such curve, though single readings can be large or run the other way; tested in A549 cells; also: nearly all actives have a fitted effect of over 35% in size; inactives centre near -10
VACV Venus inh: inhibitors of vaccinia virus (Venus reporter) | Vaccinia virus Venus reporter expression, fluorescence | Potency, µM (titrated, usually from 36.5 µM), inactives show at the top dose activity change, negative = inhibition, usual class: inhibitors | 0.46% of 330,000 active | AID 720580; active means well fitted inhibition curve with a large enough effect; inconclusive means small, poorly fitted or top-dose-only effect; inactive means no such curve, though single readings can be large or run the other way; tested in A549 cells; also: nearly all actives have a fitted effect of over 30% in size; inactives centre near -10
* marks the source's active call; other numbers are inactive results; i = inactive; u = inconclusive; x = not tested or not shown; & = joins results of further samples. % is scaled to controls: 0 for no effect and ±100 for the full control effect; potency is read from the fitted curve at half-maximal effect.

Values run as follows: VACV mCherry inh, VACV Venus inh
> Cc1cc(C)n(CCc2nc3c4ccccc4nc(N4CCN(c5ccccc5F)CC4)n3n2)n1
 : -11%, 7%
> COc1cccc(CN2CCC2(C)C(=O)Nc2cccc3cccnc23)c1OC (configuration not stated)
 : 0%, -4%
> COc1ccc(-c2oc3ccccc3c2C(=O)OCc2ccc([N+](=O)[O-])cc2)cc1
 : -1%, -29%
> Cc1cccc(CCNC(=O)CC2C(=O)NCCN2CC2CCCCC2)n1 (configuration not stated)
 : 0%, 0%
> CCCCCn1nc(C(=O)N(CCOC)c2c(N)n(CCCC)c(=O)[nH]c2=O)c2ccccc2c1=O
 : i, -14%
> Cn1/c(=N/NC(=O)c2ccccc2Br)sc2ccccc21
 : -13%, 0%
> CCOC(=O)c1cnn(-c2ccccc2)c1-n1cccc1C(=O)C(=O)Nc1ccc(OC)cc1
 : x, u
> CC1CCCC(NC(=O)c2cccc(S(=O)(=O)N3CCN(c4ccccc4)CC3)c2)C1C (configuration not stated)
 : -2%, -18%
> CC(=O)c1ccc(NC(=O)CCSCCC(=O)Nc2ccc(C(C)=O)cc2)cc1
 : -7%, -5%
> Cc1cc2nc(/C=C/c3nc4cc(C)c(C)cc4[nH]3)[nH]c2cc1C
 : i, 7%
> O=C(Nc1cc(S(=O)(=O)Nc2ccc(Cl)cc2)ccc1N1CCCCC1)c1ccc(F)cc1
 : -10%, u
> O=C(COC(=O)c1ccc(F)cc1F)NCc1ccc2c(c1)OCO2
 : i, -5%
> O=C(NNC(=O)c1cc([N+](=O)[O-])ccc1Cl)c1cccs1
 : -10%, -3%
> Cc1cc(/C=C(\C#N)C(=O)NCc2ccco2)c(C)[nH]1
 : x, -15%
> Cc1c(-c2ccc(Br)cc2)nc2ccccn12
 : -11%, -26%
> CCCCc1nnc(NC(=O)C23CC4CC(CC(NC(C)=O)(C4)C2)C3)s1
 : -1%, -18%
> CCOc1ccc(NS(=O)(=O)c2ccc3[nH]cc(C(=O)N4CCCC4)c(=O)c3c2)cc1
 : 11%, 6%
> Clc1ccc2nc(N3CCNCC3)nc(-c3ccccc3)c2c1
 : -31%, -18%
> CC[C@H](C)C(=O)O[C@H]1CCC=C2C=C[C@H](C)[C@H](CC[C@@H]3C[C@@H](O)CC(=O)O3)[C@H]21
 : -5%, -20%&0%
> COc1cccc(/C=N/n2c(-c3cc(C)[nH]n3)n[nH]c2=S)c1
 : -9%, 9%
> CCCCN1C(=O)C2Cc3c([nH]c4ccccc34)CN2C1=S (configuration not stated)
 : 1%, 1%
> Cc1cccc(-n2c(CNC(=O)c3ccc(S(=O)(=O)N(C)C)cc3)nnc2SCC(=O)Nc2ccc(F)cc2)c1
 : -7%, -17%
> CC1(C)Cc2cccc(Oc3ccc(S(=O)(=O)N4CCCCC4)cn3)c2O1
 : i, -12%
> OCCCNCc1cc2cc3c(cc2nc1N1CCN(c2cccc(Cl)c2)CC1)OCO3
 : -13%, -7%
> CC(=O)c1cccc(NC(=O)c2c(N3CCCC3=O)c3cc(F)ccc3n2C)c1
 : 1%, 1%
> O=C(CSc1nnc(-c2ccco2)o1)c1ccc(O)cc1O
 : -1%, -12%
> CC(=O)N/C(=C\c1ccccc1)C(=O)OCC(=O)NC1CCCC1
 : i, -14%
> COc1ccc(C(=O)NC(=S)N2CCOCC2)cc1Br
 : -1%, -3%
> CC(=O)c1ccc(-c2nnc(CCC(=O)N(C)Cc3cnc4ccccn34)o2)s1
 : -13%, -12%
> O=S(=O)(NN=C1CCCCC1)c1ccccc1
 : i, -8%
> O=C(/C=C/c1ccccc1Cl)Nc1ccc(Cl)cn1
 : -11%, 2%
> O=C(CSc1nnnn1-c1cccc(F)c1)NC1CCCCC1
 : i, -17%
> OCC[C@@H]1C[C@H](O)[C@@H](O)[C@]2(CCCc3ccccc3O2)O1
 : i, -9%
> C=CCOc1ccccc1CN1CCCCCC1
 : i, -10%
> CCN(CC)S(=O)(=O)c1ccc(N2CC(C(=O)NCc3ccco3)CC2=O)cc1 (configuration not stated)
 : i, -9%
> CCCCCOc1ccc(Cl)cc1CN1CCOCC1
 : -4%, -14%
> O=C(NCCc1ccccc1)c1n[nH]c(=O)c2ccccc12
 : 8%, 14%
> CC(=O)c1sc(NC(=O)C2CC(=O)N(Cc3ccco3)C2)nc1-c1ccccc1 (configuration not stated)
 : -27%, -10%
> COc1ccc(Cn2nnnc2C(C(C)C)N(Cc2ccco2)Cc2cccs2)cc1 (configuration not stated)
 : x, -30%
> Cc1ccc(C)c(NC(=O)c2ccc(=O)n(Cc3ccc(F)cc3)c2)c1
 : -7%, -8%
> O=C(Cc1ccc(F)cc1)N[C@@H]1c2ccccc2CC[C@H]1OCc1ccccc1
 : -22%, -11%
> O=C(CNS(=O)(=O)/C=C/c1ccccc1)OCC(=O)N1CCC(Cc2ccccc2)CC1
 : -16%, -16%
> COc1ccc(/C=C/C(=O)NC(=S)NNC(=O)c2ccco2)cc1
 : x, u
> CCCn1nnnc1SCC(=O)NCc1ccccc1
 : -10%, 3%
> CCCn1c(SCC(=O)Nc2ccc(NC(=O)CC)cc2)nc2c1c(=O)n(C)c(=O)n2C
 : i, -10%
> O=C(NC1=NCCS1)C1CC(=O)N(c2ccc(Cl)cc2)C1 (configuration not stated)
 : -4%, -3%
> CC(C)CC(N)c1csc(NC(=O)c2cc(C(C)(C)C)nn2Cc2ccccc2)n1 (configuration not stated)
 : 11µM*, 13µM*
> Cc1cccc(NC(=O)CSc2nnc(CNC(=O)c3cccc(C)c3)n2-c2ccccc2)c1
 : -16%, -14%
> O=C(NN1C(=O)c2ccccc2C1=O)C1CC2CCC1C2 (configuration not stated)
 : -4%, -17%
> c1ccc(-c2ccccc2OCCn2cncn2)cc1
 : -23%, -5%
> CC1C(=O)N(Cc2cn(Cc3ccco3)nn2)CCS(=O)(=O)N1Cc1ccc(-c2cccc(CO)c2)cc1 (configuration not stated)
 : i, -15%
> CC(C)C(=O)Nc1cccc(NC(=O)c2ccc(Cl)cc2Cl)c1
 : -9%, -17%
> Cc1cccc(CNC(=O)C2CCC(=O)N(Cc3ccccc3F)C2)n1 (configuration not stated)
 : -15%, -14%
> CCOc1cccc(/C=C/c2ccc3cccc(O)c3n2)c1O
 : -22%, -20%
> CCC1=Nc2ccc(Br)cc2C(c2ccccc2)N1CC(=O)OC (configuration not stated)
 : -16%, -23%
> CCCN(C(=O)CSCC(=O)Nc1ccc(OC)cc1)c1c(N)n(Cc2ccccc2)c(=O)[nH]c1=O
 : -6%, -7%
> CCCN1CCc2[nH]c(=S)[nH]c(=O)c2C1
 : -13%, -3%
> CCOC(=O)c1ccc(OCCOc2ccccc2C)cc1
 : -13%, -2%
> NCC1O[C@@H](O[C@H]2C(O)C(O[C@@H]3C(O[C@H]4OC(CO)C(O)C(O)C4N)C(N)CC(N)[C@H]3O)O[C@@H]2CO)C(N)C(O)C1O (some centres not stated)
 : -16%, -7%
> CC1CCc2c(sc(NC(=O)c3ccccc3)c2C(=O)Nc2ccccc2)C1 (configuration not stated)
 : -21%, -9%

Following part
Values run as follows: VACV mCherry inh, VACV Venus inh
> CN(C(=O)C1CCCCC1)C1CCS(=O)(=O)C1 (configuration not stated)
 : -8%, -2%
> Cc1nn(C)c(Nc2ccc(Br)cc2)c1Br
 : -16%, -16%
> CCCCCCOc1ccc(C(CC(=O)NC)C(=O)O)cc1 (configuration not stated)
 : i, -3%
> CCN(c1cccc2ccccc12)S(=O)(=O)c1ccc(Cl)nc1
 : u, -11%
> Cc1ccc(N2C(=O)N(CC(=O)Nc3ccc(C)cc3C)C(=O)C2C)cc1 (configuration not stated)
 : i, -12%
> CCC(C)NC(=O)c1cccc(OCc2c(C)noc2C)c1 (configuration not stated)
 : i, -26%
> CCOP(=O)(OCC)/C(C#N)=C/c1ccc(Br)cc1
 : -11%, -4%
> CC(=O)C1=C(C)N(CC2CC2)C(=O)N[C@H]1c1cccs1
 : i, -10%
> CCOc1ccccc1CNC(=O)Cn1c(=O)c2cccn2c2ccc(F)cc21
 : -26%, u
> CCOC(=O)c1sc(NC(=S)NC(=O)CC(C)C)cc1C
 : -5%, -27%
> OC(CN1CCCCC1)c1ccc2c3c(cccc13)CC2 (configuration not stated)
 : u, -6%
> COCC(=O)Nc1ccc2c(c1)OCO2
 : -19%, -10%
> COC(=O)Cc1ccc(NC(=S)N2CCN(c3cc(Cl)ccc3C)CC2)cc1
 : -19%, -13%
> C#CCOc1ccc(C2C(C#N)=C(N)Oc3cc(O)ccc32)cc1 (configuration not stated)
 : i, -18%
> CC(C)(C)NC(=O)COC(=O)CCC(=O)c1ccc(F)cc1
 : u, 0%
> COc1ccc(CNc2ncnc3ccccc23)cc1
 : -18%, -23%
> COc1ccc(CNC(=O)c2ccc(Cn3nc(C)c([N+](=O)[O-])c3C)o2)cc1
 : -2%, -22%
> O=C1OCCN1C(=O)[C@H]1[C@H](c2ccc(F)cc2)C(c2ccccc2)=NN1c1ccc(Br)cc1
 : -16%, -18%
> COc1cccc(OCC(O)CN(CCO)Cc2ccccc2)c1 (configuration not stated)
 : x, 13%
> COc1ccc(OC)c(C(=O)COC(=O)c2c(OC)cccc2OC)c1
 : -1%, -15%
> COC(=O)c1ccc2c(=O)n(CCCCCC(=O)NCc3ccc(OC)cc3)c(=O)[nH]c2c1
 : -13%, -15%
> CCOCCCNC(=O)c1cn(CC)c2ccc(S(=O)(=O)N3CCc4ccccc4C3)cc2c1=O
 : -22%, -15%
> CCOC(=O)CNC(=O)CSc1ncnc2c1cnn2-c1ccc(OC)cc1
 : x, -23%
> COc1ccc(NC(=S)N2CCN(Cc3ccc(C)cc3)CC2)cc1
 : -25%, -16%
> CSc1cccc(NC(=O)C2CCN(c3ncnc4c3nc3n4CCCCC3)CC2)c1
 : -2%, -16%
> CCCS(=O)(=O)N1CCN=C1SCc1cccc2ccccc12
 : -1%, -4%
> COc1ccccc1/C=C/C1=NC(=C\N(C)C)/C(=O)O1
 : x, -8%
> CC(C)c1csc(CN2CCC(CO)(Cc3ccccc3)CC2)n1
 : -24%, -8%
> CCc1ccc(-c2cn3c(n2)sc2cc(C(=O)NCC(C)c4ccccc4)ccc23)cc1 (configuration not stated)
 : -18%, -28%
> Cc1ccc(CCNC(=O)c2cc3n(n2)CCCN(Cc2ccc(C)cc2)C3=O)cc1
 : -26%, -17%
> O=C(Nc1ccccc1)c1cc(C2CCCCN2C(=O)OCc2ccccc2)on1 (configuration not stated)
 : 19%, -1%
> COc1ccccc1N1CCN(C(=O)c2cccc(N3C(=O)NC4CC3(C)Oc3ccccc34)c2)CC1 (configuration not stated)
 : u, -28%
> NS(=O)(=O)c1ccc(-n2nc(C(=O)O)cc2-c2ccc(Cl)cc2)cc1
 : -14%, -13%
> COC(=O)c1[nH]c2cccc(OC)c2c1NC(=O)CCN1CC(C)CC(C)C1 (configuration not stated)
 : x, -10%
> COc1cc(C(C)=O)ccc1O
 : i, -9%
> Nc1nc(NC(=O)/C=C/c2ccccc2)nn1-c1ccccc1
 : -9%, -4%
> CCC(C)(C)C1CCc2[nH]nc(C(=O)NC3CCCC3)c2C1 (configuration not stated)
 : u, u
> CCN(CCn1cccn1)C(=O)CCc1nnc(CCCc2ccccc2)o1
 : i, -6%
> Nc1nc(N2CCN(c3cccc(Cl)c3)CC2)n[nH]1
 : i, -14%
> O=S(=O)(Nc1nc2ccccc2nc1NCC1CCCO1)c1cccs1 (configuration not stated)
 : -11%, 2%
> CN1N=C2c3ccccc3CCC2C1c1ccc(Cl)cc1 (configuration not stated)
 : i, -10%
> CCCCCC(=O)N1C[C@@H](n2cc(-c3ccc(F)cc3)nn2)[C@H](O)C[C@@H]1c1ccc(Cl)cc1
 : i, -19%
> Cc1ccc(N2CCN(c3nc4ccc(C(=O)c5ccccc5)cc4n4cnnc34)CC2)c(C)c1
 : -16%, -4%
> CCOc1ccccc1-c1noc(CSc2nnc(-c3ccccc3)n2-c2ccc(OC)cc2)n1
 : -16%, -17%
> Cc1cccc(C(=O)n2cnnc2N)c1
 : -8%, -17%
> COc1ccc(NC(=O)c2oc3ccc(S(=O)(=O)N4CCCCC4)cc3c2C)cc1Cl
 : -17%, -11%
> COc1ccc(NS(=O)(=O)c2cccc(C(=O)N3CCC3)c2)cc1
 : i, -7%
> CN(C)C(=O)c1ccc2c(c1)n(C)c(=O)n2C
 : i, -3%
> COc1ccc(-c2cnnc(N/N=C/c3ccc(O)c(OC)c3)n2)cc1
 : -28%, u
> Cc1ccc(S(=O)(=O)CCC(=O)OCC(=O)Nc2ccc(N3CCOCC3)cc2)cc1
 : i, -11%
> COc1ccccc1C(=O)NCCC(=O)NC(C)CCc1ccccc1 (configuration not stated)
 : i, -12%
> COc1ccccc1N(CC(=O)Nc1ccc(S(=O)(=O)N2CCOCC2)cc1)S(C)(=O)=O
 : -3%, -16%
> CSc1nc(NC(C)C)nc(N2CCOCC2)n1
 : x, -22%

A draw from above in order of heavy-atom count, smallest number first:
Values run as follows: VACV mCherry inh, VACV Venus inh
> COCC(=O)Nc1ccc2c(c1)OCO2
 : -19%, -10%
> c1ccc(-c2ccccc2OCCn2cncn2)cc1
 : -23%, -5%
> O=C(NN1C(=O)c2ccccc2C1=O)C1CC2CCC1C2 (configuration not stated)
 : -4%, -17%
> CCCCN1C(=O)C2Cc3c([nH]c4ccccc34)CN2C1=S (configuration not stated)
 : 1%, 1%
> O=S(=O)(Nc1nc2ccccc2nc1NCC1CCCO1)c1cccs1 (configuration not stated)
 : -11%, 2%
> CCOC(=O)c1cnn(-c2ccccc2)c1-n1cccc1C(=O)C(=O)Nc1ccc(OC)cc1
 : x, u
